# Screens from PubChem.
# MT1-MMP act inh – MT1-MMP (human) activation inhibition | P50281 | HT1080 RFP-PRO-GFP cells, GFP/RFP ratio fluorescence, overnight; percent of plate control window, DMSO zero | GFP/RFP ratio change, % at 20 µM | actives 0.061% (n = 360,000);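 active = GFP/RFP ratio change of at least 30% with cell ATP level not reduced by more than half and red fluorescence within 50% of control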; also: strong numbers were not always called active
#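 Assay system: HT1080 RFP-PRO-GFP cells | Dosing: 20 µM single dose, 1% DMSO | Incubation: Cells overnight before dosing, compound overnight, 37 °C, 5% CO2 | Evaluation: GFP/RFP fluorescence ratio | Control set: DMSO-only wells and HT1080 RFP-L50D-GFP cell wells as references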
# UUG fidelity – modulators of start codon recognition fidelity in yeast | S. cerevisiae UUG-firefly luciferase reporter, luminescence/redox ratio | activity score, % at 18.7 µM | actives 0.13% (n = 350,000);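 active = replicate mean at a twofold rise or more, about +100% in these data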;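 also: firefly luciferase made from a UUG start codon reports start codon fidelity; reporter light over untreated wells divided by growth signal over untreated wells; some hits fall short of that in this replicate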
# Env fusion inh – inhibitors of HIV Env-mediated cell fusion | HeLa-JRFL Env/CEM21 cell fusion, luciferase | AID 651610 | inhibition, % at 12.3 µM | actives 1.1% (n = 360,000);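 active = mean replicate inhibition score of at least 50 and every replicate individually at or above 50; inconclusive = only one of the two criteria met; inactive = mean below 50 and not all replicates reaching 50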;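 also: 0% = plate neutral controls and 100% = maraviroc near 300 nM; one replicate is shown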
# eIF4H inh – inhibitors of RNA binding by human eIF4H; eIF4H fluorescence polarization binding assay; inhibition, % at 35 µM; actives 0.94% (n = 290,000); AID 2012;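 active = 50% or more with normal probe brightness, or confirmed in later tests; inconclusive = above 50% with abnormal brightness, or retests that disagree; inactive = below 50% or failed in later tests; about a fifth of its hits are not listed in these tables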;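 also: calls also rest on retests at 20 µM and on dose response follow-up; 0% = protein and probe with vehicle and 100% = probe without protein; strong numbers were not always called active; many hits fall short of the cut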
# Rce1 inhib – yeast Ras-converting enzyme inhibition | Q03530 | yeast membranes, quenched prenylated peptide cleavage fluorescence | calls only | actives 0.27% (n = 290,000) | AID 2563;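 active = fall in fluorescence gain of 50% or more versus controls, with final raw signal at or below 3038400; inconclusive = same 50% fall but final raw signal above 3038400; inactive = fall in fluorescence gain under 50%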;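 also: plate controls were neutral control wells for no effect and wells lacking membranes for full effect; tested at 10 µM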
# Target sequence (Q03530 whole entry, looked up): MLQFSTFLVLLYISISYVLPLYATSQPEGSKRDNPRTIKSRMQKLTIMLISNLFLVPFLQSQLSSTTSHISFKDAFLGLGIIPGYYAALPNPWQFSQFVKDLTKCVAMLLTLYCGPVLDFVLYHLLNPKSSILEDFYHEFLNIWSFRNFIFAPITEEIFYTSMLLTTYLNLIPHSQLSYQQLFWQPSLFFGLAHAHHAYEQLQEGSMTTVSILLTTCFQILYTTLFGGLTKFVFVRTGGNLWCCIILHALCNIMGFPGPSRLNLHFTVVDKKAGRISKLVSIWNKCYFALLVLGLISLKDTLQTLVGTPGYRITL
# CSC inhib – cancer stem cell inhibition | AID 2717 | cancer stem cell-like cells viability, luminescence | inhibition, % at 7.5 µM | actives 1.1% (n = 300,000);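 active = mean at 75% or more and at least half the replicates too; inconclusive = mean and replicates disagree; tested in HMLE shEcad cells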;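 also: 0% = median of negative and 100% = median of positive control wells; the first replicate is given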
# PABP FP inh – blocks human PABP binding to poly(A) RNA; P11940; inhibition, % at 35 µM; fluorescence polarization; actives 1% (n = 290,000);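 active = 50% or more with normal probe brightness, or confirmed in later tests; inconclusive = above 50% with abnormal brightness, or retests that disagree; inactive = below 50% or failed in later tests; about a fifth of its hits are not listed in these tables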;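 also: calls also rest on retests at 20 µM and on dose response follow-up; controls were probe without protein and protein plus probe with vehicle; some compounds called inactive have numbers as strong as hits; many hits fall short of the cut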
# Target sequence (P11940 whole entry, looked up): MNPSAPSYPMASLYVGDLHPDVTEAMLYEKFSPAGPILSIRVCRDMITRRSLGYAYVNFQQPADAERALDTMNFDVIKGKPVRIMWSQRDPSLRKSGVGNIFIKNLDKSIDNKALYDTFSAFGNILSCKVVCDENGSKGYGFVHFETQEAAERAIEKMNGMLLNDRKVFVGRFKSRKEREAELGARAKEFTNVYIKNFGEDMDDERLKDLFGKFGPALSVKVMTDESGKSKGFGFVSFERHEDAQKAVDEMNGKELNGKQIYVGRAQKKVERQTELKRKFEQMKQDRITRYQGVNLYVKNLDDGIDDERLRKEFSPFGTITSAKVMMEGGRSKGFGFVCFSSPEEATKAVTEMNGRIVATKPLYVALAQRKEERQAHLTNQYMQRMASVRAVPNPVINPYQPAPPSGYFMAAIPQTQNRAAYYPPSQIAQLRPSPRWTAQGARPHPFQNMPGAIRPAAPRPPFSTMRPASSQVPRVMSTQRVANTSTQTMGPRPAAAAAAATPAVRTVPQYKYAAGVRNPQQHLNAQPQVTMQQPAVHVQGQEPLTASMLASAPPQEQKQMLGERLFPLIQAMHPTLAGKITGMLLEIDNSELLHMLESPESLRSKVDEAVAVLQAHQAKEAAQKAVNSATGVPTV
# eIF4H inh retest – recorded beside eIF4H inh, whose call it bears; inhibition, %; compound at 20 µM; confirmation average;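 mean of two retest wells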
# PABP FP inh retest – further read-out of PABP FP inh, marked with its call; inhibition, %; compound at 20 µM; confirmation repeats;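 mean of two retest wells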
# MT1-MMP act inh RFP – recorded beside MT1-MMP act inh, whose call it bears; RFP signal change, %; measured here: RFP expression control read;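 0 = vehicle wells; hits needed this value within 50% of zero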
# The depositor's hits bear a star; i = inactive; u = inconclusive; x = not tested or not shown. Rows are unselected (roughly 2.9% active in at least one column).
SMILES,MT1-MMP act inh,MT1-MMP act inh RFP,UUG fidelity,Env fusion inh,eIF4H inh,Rce1 inhib,CSC inhib,PABP FP inh,others
CN(C)CCCN(C(=O)C1COc2ccccc2O1)c1nc2ccc(F)cc2s1 (configuration not stated),1,2,x,30,-9,i,-4,-22,
Cc1ccc(S(=O)(=O)NC(=O)Nc2cc(C(C)(C)C)on2)cc1,4,3,-18,-6,1,i,-6,2,
CS(=O)(=O)N(CC(=O)NCc1ccco1)c1ccccc1Cl,0,1,-15,6,0,i,7,12,
COc1ccc(OCC(=O)NNC(=O)CCc2ccccc2)cc1,7,10,-9,2,-8,i,x,-9,
Cc1ccc(C)c(OCC(O)CN2C(C)CCCC2C)c1 (configuration not stated),8,7,-10,7,-4,i,49,-3,
CCCNC(=O)C1(C)CCCN(CCOc2ccccc2)C1 (configuration not stated),5,7,-2,20,x,x,x,x,
Cc1cccc(NC(=O)C2CCN(C(=O)NCc3ccccc3)CC2)c1C,-5,-3,-11,-54,-13,i,x,-4,
COc1cc(/C=C/C(=O)OCC(=O)N2CCCC2)ccc1OCC#N,-2,3,-11,1,x,x,x,x,
CCOC(=O)c1c(C)[nH]c(C)c1C(=O)CN1C(=O)NC(CC(C)C)C1=O (configuration not stated),5,-2,-32,x,-2,i,-7,-2,
COc1ccccc1NC(=O)C(C)OC(=O)C1CCN(S(=O)(=O)c2ccccc2C(F)(F)F)CC1 (configuration not stated),3,1,-3,8,x,x,x,x,
O=C(Nc1ccc(Br)cc1)C1CC(O)CN1C(=O)Oc1ccccc1 (configuration not stated),5,1,-9,-15,-8,i,7,5,
CS(=O)(=O)CC(=O)Nc1ccc2nc3n(c(=O)c2c1)CCCCC3,8,6,-13,0,0,i,x,-4,
CN=c1scc(C)n1/N=C/c1cc(Br)c(O)c(OC)c1,-1,3,3,u,3,i,-15,0,
OCCC1CN(Cc2cc(F)ccc2-n2cccn2)CCN1C1CCCC1 (configuration not stated),3,4,-21,5,7,i,-6,6,
CC1CN(C(=O)CSc2nnc(C3CCCCC3)n2N)CC(C)O1 (configuration not stated),2,6,-23,x,x,x,-2,x,
Cc1ccc(OCC(=O)N/N=C2\CC(=O)CC(C)(C)C2)c(Br)c1,3,4,2,-23,-9,i,x,-5,
C[C@H](NC(N)=O)C(=O)N1CCN(S(=O)(=O)c2ccc3ccccc3c2)CC1,-3,2,-2,-1,-7,i,-3,-1,
Cc1oc2ccc(OCc3ccc(F)cc3)cc2c1C(=O)O,-1,-1,-9,-11,-3,i,1,3,
CCC(=O)Nc1ccccc1Oc1ccccc1,0,5,-18,10,2,i,-17,-3,
c1ccc(CSc2ccc(-c3cccnc3)nn2)cc1,4,2,-10,-19,3,i,-1,8,
Cc1ccccc1NC(=O)CCN1CCN(Cc2ccccc2)CC1,-1,-2,-12,-13,-5,x,-5,2,
O=C(COC(=O)c1cnccn1)NCCc1ccc(Cl)cc1Cl,2,1,x,-23,0,i,12,-9,
CCCCCCSc1ccc([C@@H]2[C@@H]3C(=O)N(CC)C(=O)[C@@H]3[C@]3(C(=O)OC)CCCCN23)cc1,-1,-7,-12,28,x,x,68,x,
Oc1cccc(C=NCc2ccccc2)c1O,-5,2,-16,-72,90*,i,-3,46*,eIF4H inh retest=104*;PABP FP inh retest=94*
O=C(CSc1nc2ccccc2c(=O)[nH]1)Nc1ccc(N2CCOCC2)cc1,3,0,-2,-9,-2,i,-21,-2,
SMILES,MT1-MMP act inh,MT1-MMP act inh RFP,UUG fidelity,Env fusion inh,eIF4H inh,Rce1 inhib,CSC inhib,PABP FP inh,others
CC(=O)Nc1ccc(/C(C)=N/NC(=O)c2ccc(CN3CCOCC3)cc2)cc1,4,4,x,-10,-1,i,2,46,
CC(C)OC(=O)CC1C(=O)NCCN1C(=S)NC(=O)CCc1ccccc1 (configuration not stated),3,4,x,-1,3,i,2,2,
CCc1ccc(NC(=O)C(CC)Sc2nc3cc4c(cc3c(=O)n2Cc2ccco2)OCO4)cc1 (configuration not stated),-8,-4,-7,-61,-3,i,u,-2,
O=C(O)c1ccc(Nc2ncnc3c2cnn3Cc2ccccc2)cc1,5,0,-9,-1,3,i,-10,-14,
Cc1ccc(NC(=S)NCC2CCCO2)c(OC(F)F)c1 (configuration not stated),-1,3,-2,x,-3,i,6,1,
COc1ccccc1-c1nc2c(c(SCC(=O)N3CCCCC3)n1)Cc1c(CO)cnc(C)c1O2,-2,3,x,9,4,i,-12,7,
CCOC(=O)Cc1nnc(NC(=O)COc2ccc(C)cc2)s1,-2,-1,-8,x,-3,i,17,1,
COc1cccc(/C=C2\SC(=O)N(CCC(=O)NNC(=O)c3ccccc3Cl)C2=O)c1,1,2,-11,-31,-8,i,6,-2,
C[C@@H](C(=O)Nc1ccc2ccccc2c1)[C@@H]1C[C@@]1(C)[C@@H](N)c1ccccc1,2,-1,-1,-59,x,i,x,x,
CSc1ncccc1C(=O)N1CCC(C)(C(=O)O)C1 (configuration not stated),-3,3,-20,-6,x,x,x,x,
CSc1ccc(CNc2ncc(-c3cccc([N+](=O)[O-])c3)n2C)cc1,4,1,-6,-4,1,i,-10,15,
Cc1nc(/N=C(\N)N(C)C)[nH]c(=O)c1C,-1,-7,-6,8,4,i,11,-1,
CC(C)OC(=O)/C(=C\c1ccc2c(c1)c1ccccc1n2C)NC(=O)c1ccccc1,-2,-7,-17,x,-13,i,8,-13,
COc1ccc(NC2=NCC(=O)N2c2ccccc2F)cc1,-4,9,-18,x,-1,i,10,8,
O=C(NCC1CCCO1)c1ccc(S(=O)(=O)N2CCCCC2)cc1 (configuration not stated),-4,2,6,-15,-2,i,6,7,
O=C(CCC1CCCCC1)Nc1ccc(S(=O)(=O)Nc2nccs2)cc1,0,0,-10,x,-10,i,0,2,
CSc1ccccc1NC(=O)c1cccnc1,-4,4,-17,-44,-4,i,-3,14,
CC1(C)CC(=O)C/C(=N\NC(=O)CCc2ccc(S(=O)(=O)N3CCOCC3)cc2)C1,5,9,-5,-7,1,i,2,-4,
Cc1c(Br)c([N+](=O)[O-])nn1CC(=O)c1ccccc1,5,5,x,1,4,i,-14,-9,
CCn1c(SCC(=O)Nc2nccs2)nnc1-c1ccc(S(=O)(=O)N2CCCCCC2)cc1,0,-9,-13,20,-4,i,-8,-6,
CCC(=O)N1c2ccc(S(=O)(=O)N3CCN(CC)CC3)cc2CC1C (configuration not stated),1,3,-24,4,7,i,-6,3,
COc1ccc(-c2cc(C(F)(F)F)nc(SCC(=O)Nc3cc(C)on3)n2)cc1OC,4,-3,-1,x,0,i,-18,-2,
CC[N+](CC)(CC=C(C)C)CC(=O)OC,0,3,x,-2,3,i,x,2,
Cc1cc(C)n2c(=O)[nH]nc2c1,6,1,-12,-5,x,x,x,x,
O=C(CNC(=O)c1ccco1)NCc1ccc2c(c1)OCO2,1,2,-15,-11,x,x,-6,x,
SMILES,MT1-MMP act inh,MT1-MMP act inh RFP,UUG fidelity,Env fusion inh,eIF4H inh,Rce1 inhib,CSC inhib,PABP FP inh,others
CCOC(=O)C1CCN(C(=O)c2ccc(Cl)c(S(=O)(=O)N3CCOCC3)c2)CC1,2,-2,-5,x,-10,i,x,-5,
Cc1ccc(-c2cc(C(=O)O)c3cc(Br)ccc3n2)o1,-7,5,-12,1,18,i,-16,10,
COc1ccc(CCNC(N)=S)cc1OC,4,4,-5,x,-4,i,-17,-3,
S=c1[nH]cc(-c2ccccc2)n1-c1cccc(Cl)c1,-3,-6,x,70*,4,i,-13,4,
COc1ccc([N+](=O)[O-])cc1NC(=O)C(C)N(C)Cc1cccc(OC)c1OC (configuration not stated),-5,-8,-6,18,-2,i,-2,6,
COc1ccc(C)cc1NC(=O)C(OC(=O)C1CC1)c1ccccc1 (configuration not stated),-2,-2,-6,-29,2,i,-3,-1,
c1ccc2cc(OCc3nc4ccccc4[nH]3)ccc2c1,8,-5,-10,x,-10,i,-4,-4,
Cc1cccc(N(C)S(=O)(=O)c2c(C)noc2C)c1,0,2,-7,4,-10,i,-15,-6,
CCOc1ccc(CNC(=O)Nc2ccccc2)cc1,-4,-3,-6,-16,-11,i,x,-1,
COc1ccc(CC(=O)Nc2ccc3nc(SC)sc3c2)cc1OC,0,3,x,18,0,i,5,4,
COC(=O)/C=C1\S/C(=N\N=C\CC(=O)OC)NC1=O,-1,-1,-16,-18,26,i,14,7,
Cc1ccc(-c2csc(N3CCC(C(N)=O)CC3)n2)cc1,-1,0,-10,-36,x,x,-6,x,
C=CCOCCN1C(=O)C2C(c3ccccc3)C=CC(c3ccccc3)C2C1=O (configuration not stated),-16,-6,2,-184,-1,i,6,-1,
N=C1/C(=C/c2cccs2)C(=O)N=C2SN=C(SCc3ccccc3)N12,-5,-3,-7,-37,15,i,6,3,
O=C(CN1CCN(C(=O)c2ccco2)CC1)Nc1ccccc1-c1ccccc1,3,3,-20,i,4,i,-8,-5,
CCC(=O)Oc1ccc(NC(=O)CSCc2ccccc2)cc1,7,6,x,-6,-6,i,x,-4,
COCCn1c(=S)[nH]c2cc(C(=O)N3CCN(c4ccccc4OC)CC3)ccc2c1=O,9,-7,x,-17,-9,x,-5,-1,
CCCN1C(=O)S/C(=C\c2ccc(N3CCOCC3)o2)C1=O,-118,1,x,-75,u,i,-4,-4,
O=C(c1sc2cc([N+](=O)[O-])ccc2c1Cl)N1CCOCC1,-2,0,x,2,-1,i,-7,-4,
COc1cc(OC)cc(C(=O)N[C@H](C(=O)OCC(=O)Nc2ccc(F)c(F)c2)C(C)C)c1,0,1,x,x,7,i,-1,3,
Cc1nnc(Nc2ccc(C(=O)N3CCOCC3)cc2)c2ccccc12,-1,-1,-13,-113,-8,i,-11,-1,
COC(=O)COc1ccc(S(=O)(=O)Nc2ccc(C(N)=O)cc2)cc1Cl,0,-1,-13,x,-4,i,-3,-2,
CCn1c(C)nnc1SCC(=O)Nc1cccc(Cl)c1,-3,1,-13,1,17,i,-5,-3,
CCOc1ccc(NC(=O)COC(=O)C2COc3ccccc3O2)cc1 (configuration not stated),2,0,-6,12,x,x,x,x,
O=C(Nc1cc(-c2nn(CC(=O)N3CCCCC3)c(=O)c3ccccc23)ccc1N1CCOCC1)c1ccc(Cl)cc1,-3,-4,-10,-33,3,i,-15,-6,
SMILES,MT1-MMP act inh,MT1-MMP act inh RFP,UUG fidelity,Env fusion inh,eIF4H inh,Rce1 inhib,CSC inhib,PABP FP inh,others
COc1ccc(Nc2ncnc3c2cnn3Cc2ccccc2)cc1OC,4,-10,x,x,-5,i,17,4,
COC(=O)c1[nH]c2ccccc2c1NC(=O)CCN1CCSCC1,3,2,-62,5,-3,i,-11,2,
Cc1ccc(S(=O)(=O)N2CCCN(S(=O)(=O)c3ccc4c(c3)OCCO4)CC2)cc1,-2,-7,x,u,1,i,-13,-14,
Cc1cc(F)ccc1-c1cc(C(=O)NC(C)C)[nH]n1,0,1,-15,-6,x,x,x,x,
COc1ccc(C2CC(=O)CCN2S(=O)(=O)c2ccc(C)cc2)cc1 (configuration not stated),5,2,-32,1,x,x,x,x,
O=C(Nc1ccc2c(c1)C(=O)N(CC1CCCO1)C2=O)c1cccc(Br)c1 (configuration not stated),0,-11,-7,41,7,i,3,-8,
CC1(C)CC(=O)c2sc(NC(=O)c3ccco3)nc2C1,0,-2,-15,-18,0,i,-11,11,
